Assay outcomes (PubChem)
KCNQ2 inh: KCNQ2 potassium channel inhibitors, primary screen, cell-based, CHO-K1, FluxOR thallium flux, B-score (AID 2156); Potassium voltage-gated channel subfamily KQT member 2 (Rattus norvegicus), O88943; 20 min; active compounds read low; only compounds with negative scores are shown here; some inactives read as strong as hits; B-score at 10 µM; hit rate 1.1% among 310,000;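 active = fluorescence ratio B-score at most minus 3 library SDs, with starting brightness B-score within 2 library SDs, cut at about -5.5 in these data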
Target sequence (O88943 whole entry, looked up): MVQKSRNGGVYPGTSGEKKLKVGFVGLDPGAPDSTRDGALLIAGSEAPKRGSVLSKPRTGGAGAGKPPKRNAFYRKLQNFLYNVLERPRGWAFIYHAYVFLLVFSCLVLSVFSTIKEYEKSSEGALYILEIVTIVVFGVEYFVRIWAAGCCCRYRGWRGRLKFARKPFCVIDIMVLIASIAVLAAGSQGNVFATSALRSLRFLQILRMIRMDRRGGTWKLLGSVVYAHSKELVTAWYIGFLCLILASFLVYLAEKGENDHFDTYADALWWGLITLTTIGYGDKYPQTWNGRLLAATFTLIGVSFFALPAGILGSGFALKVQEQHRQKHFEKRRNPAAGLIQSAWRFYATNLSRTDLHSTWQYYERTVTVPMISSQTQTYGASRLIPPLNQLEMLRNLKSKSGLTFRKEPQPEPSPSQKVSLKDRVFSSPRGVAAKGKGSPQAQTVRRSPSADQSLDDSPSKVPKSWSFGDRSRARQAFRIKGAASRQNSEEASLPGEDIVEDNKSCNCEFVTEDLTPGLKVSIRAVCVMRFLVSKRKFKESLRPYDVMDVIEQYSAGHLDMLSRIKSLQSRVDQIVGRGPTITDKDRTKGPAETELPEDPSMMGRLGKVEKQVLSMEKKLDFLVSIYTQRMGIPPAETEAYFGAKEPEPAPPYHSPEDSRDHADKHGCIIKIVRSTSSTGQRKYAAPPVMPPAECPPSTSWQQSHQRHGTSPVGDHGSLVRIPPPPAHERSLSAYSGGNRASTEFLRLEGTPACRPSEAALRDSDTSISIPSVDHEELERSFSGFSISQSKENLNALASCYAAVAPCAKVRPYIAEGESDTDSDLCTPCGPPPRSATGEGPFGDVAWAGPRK
KCNQ2 inh baseline: also measured in KCNQ2 inh; calls as there; B-score; measured here: initial fluorescence intensity artifact check;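 brightness before thallium and not channel activity; 0 = typical well and far values either way flag optical interference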
Active calls of the source: *; i = inactive. Not all compounds are listed; count on the stated rates, not on these rows.

Value order – KCNQ2 inh, KCNQ2 inh baseline
CCN(CC)CCn1c(=S)[nH]c2ccc(Br)cc2c1=O
→ i, -1.1
O=c1cc(CSc2n[nH]c(=O)n2C2CC2)c2ccc(O)cc2o1
→ i, 1.9
COc1cc(/C=C2\N=C(c3c(-c4ccccc4)noc3C)OC2=O)ccc1OC(C)=O
→ i, -1.1
CC1(C)CN(c2ccccc2)N(Cc2ccc(F)cc2)C1=O
→ i, -2.4
CCC(C)(C)n1nnnc1C(c1ccc(O)c(OC)c1)N1CCc2ccccc2C1 (configuration not stated)
→ i, 1.3
CCC1=C(c2ccc(C)cc2)S(=O)(=O)N=C1N1CCC(C(=O)NCCCN2CCCCC2C)CC1 (configuration not stated)
→ i, 0.02
CCCn1c(=O)c(C(=O)NCCc2ccc(OC)c(OC)c2)c(O)c2ccccc21
→ -6.2*, -0.33*
O=C(NC1CC1)c1cc(OCC(F)(F)F)ccc1OCC(F)(F)F
→ i, 1.7
COc1ccc(NC(=O)CSc2nnc3ccc(-c4ccncc4)nn23)cc1
→ i, 2.1
COc1cc(CNCCO)cc(Cl)c1OCc1ccc(Cl)cc1Cl
→ -9.8*, 0.16*
COc1cc(NC(c2ccccc2)c2ccccc2)cc(OC)c1OC
→ i, 1
CCN(Cc1nc(-c2ccccc2)no1)C(=O)c1ccoc1C
→ i, -0.48
CCC1(c2ccccc2)NC(=O)N(CC(=O)Nc2ccc(Cl)c(S(=O)(=O)N3CCCCC3)c2)C1=O (configuration not stated)
→ i, -2.6
CCc1noc(C)c1C(=O)N1CCN(S(=O)(=O)c2ccc(C)cc2)CC1
→ i, 1.1
CN1C=CC2=C(C#N)C(N)C(C#N)(C#N)[C@H](c3ccccc3)[C@H]2C1 (some centres not stated)
→ i, 7
C=Cc1ccc(N=Cc2c(O)ccc3ccccc23)cc1
→ i, 0.95
CCOc1cc(C2C3=C(CCCC3=O)NC3=C2C(=O)CCC3)cc(Cl)c1O
→ i, -1.5
COc1ccc(CNC(NC(=O)c2ccccc2)(C(F)(F)F)C(F)(F)F)cc1
→ i, -1
CC(C)c1nc(C#N)c(NN)o1
→ i, -0.82
COc1ccc(C2C(C(=O)NCC3CCCO3)c3cc(OC)c(OC)cc3C(=O)N2C)cc1OC (configuration not stated)
→ i, 1
CS(=O)(=O)N1CCC(C(=O)N2CCN(Cc3ccccc3)CC2)CC1
→ i, 0.03
COc1ccc(NC(=S)NC23CN4CN(CN(C4)C2)C3)cc1
→ i, -1.8
O=C(C1=C[C@H](c2ccc3c(c2)OCO3)C[C@H](OCc2ccc(CO)cc2)O1)N1CCN(Cc2ccc3c(c2)OCO3)CC1
→ i, 0.21
Cc1cccc(-c2nc(NCCCN(C)C)c3ccccc3n2)c1
→ i, 1.3
CC(=O)Nc1cccc(NC(=O)C2CCCN2C(=O)Nc2cccc(C)c2)c1 (configuration not stated)
→ i, -0.4
COc1ccccc1OCCCOc1ccc(/C=C2\SC(=O)NC2=O)cc1OC
→ i, 0.35
O=C(Nc1ccccc1)N1CCn2c1nc1ccccc12
→ i, 0.08
Cc1cc(-c2ccc(S(=O)(=O)N3CCCCC3)s2)on1
→ i, -0.93
COC(=O)c1ccc(NC(=O)CSc2nc3cccnc3n2C)cc1
→ i, -0.29
CCc1ccc(NC(=S)Nc2cccc3cnccc23)cc1
→ i, 0.64
CCC1CCCCN1C(=O)Cn1c(=O)n(CCCC(=O)NCc2ccco2)c(=O)c2sccc21 (configuration not stated)
→ i, 0.16
CCC(C(=O)NCc1ccc(F)cc1)N(Cc1cccs1)C(=O)c1snc(C(N)=O)c1N (configuration not stated)
→ i, 2.3
CCCn1c(SCC(=O)NCc2ccccc2Cl)n[nH]c1=O
→ i, 0.5
COc1cc(/C=N/NC(=S)NCCc2ccccc2)cc(OC)c1OC
→ i, 0.14
Cc1cc(C)cc(C(=O)NC(CC(N)=O)c2ccc(N3CCN(c4ccccn4)CC3)c([N+](=O)[O-])c2)c1 (configuration not stated)
→ i, 1.2
c1cncc(Nc2nc(-c3cccs3)cs2)c1
→ i, 1.5
N/C(=N\OC(=O)c1ccc(F)cc1)c1ccc(Br)cc1
→ i, -0.05
Cc1cc(C)nc(NC(=O)c2csnn2)c1
→ i, -0.1
CC(=O)Nc1cc2c3c(c1)CCC(=O)N3CCC2
→ i, 1
COc1ccc(-c2nnc(SCc3cc(C)ccc3C)n2N)cc1
→ i, -1.1
CC(=O)NC(=O)NC1OC(=O)C(Cl)=C1Cl (configuration not stated)
→ i, 0.01
COc1ccc(CCNC(=O)COC(=O)c2cnc(C)cn2)cc1OC
→ i, 2.2
Cc1ccc(N=CC2=C(O)CC(c3ccccc3Cl)CC2=O)cc1 (configuration not stated)
→ i, -1.7
COc1ccc(N(CC(=O)N2CCc3ccccc3C2)S(C)(=O)=O)cc1Cl
→ i, 3.9
CSc1ncccc1C(=O)NC1CC(C)(C)Cc2c1cnn2-c1ccccc1C (configuration not stated)
→ i, -0.71
Cc1cc(C)nc(NS(=O)(=O)c2ccc(NC(=O)CCC3COc4ccccc4O3)cc2)n1 (configuration not stated)
→ i, -0.29
O=S(=O)(NCc1csc(-c2cccnc2)n1)c1cccs1
→ i, 0.01
COCCNC(=O)CCC(=O)NNc1nc2ccccc2c2nc(C)nn12
→ i, -1.2
COc1ccccc1NC(=O)C(C)OC(=O)C1CC(=O)N(c2ccc3c(c2)OCCO3)C1 (configuration not stated)
→ i, 0.04
COc1ccc(/C=C2\CCCC(C(=O)C(F)(F)F)=C2O)cc1
→ i, 12
Cn1c(N)c(S(=O)(=O)N2CCCC2)c(=O)n(C)c1=O
→ i, -0.14
CC(C)c1ccc(NC(=O)c2ccc3c(c2)C(=O)N(Cc2cccnc2)C3=O)cc1
→ i, -0.46
Cc1sc2ncnc(N3CCCCC3C)c2c1C (configuration not stated)
→ i, -0.86
NC(=O)CN(C/C=C/c1ccccc1)C/C=C/c1ccccc1
→ i, -0.46
CC(CNC(=O)CCC(=O)N1CCOc2ccccc21)c1ccccc1 (configuration not stated)
→ i, 1.4
N=c1n(CCN2CCOCC2)c2ccccc2n1CC(=O)c1ccc(Cl)c(Cl)c1
→ i, 0.18
COc1cc([N+](=O)[O-])ccc1NC(=S)Nc1cccc(C(=O)O)c1
→ i, 0.6
Cc1cc(=O)c2cc(C(=O)c3ccccc3)ccc2[nH]1
→ i, 0.46
Cc1nc(NC(=O)C2CC2)sc1C(=O)Nc1ccccc1Cl
→ i, -1.6
COc1ccc(CCNC(=O)[C@@H]2C[C@H]2c2ccccc2)cc1OC
→ i, -1.4

Next results follow:
Value order – KCNQ2 inh, KCNQ2 inh baseline
Cc1cc(C)c2c(N)c(S(=O)(=O)c3ccccc3)sc2n1
→ i, -1.2
CC(=O)N1CCN(Cc2cc(=O)n3cc(Cl)c(C)c(Cl)c3n2)CC1
→ i, -1.1
COc1ccc(Cn2nnc3c(=O)[nH]c(C4CCN(C(=O)c5ccccc5Cl)CC4)nc32)cc1
→ i, 0.08
COc1ccc(CCNC(=O)c2ccc(=O)[nH]c2)cc1
→ i, -1.6
CCCCCn1c(CN2CCN(C(=O)OCC)CC2)nc2c1c(=O)[nH]c(=O)n2C
→ i, -2.4
CC(=O)Nc1cccc(NC(=O)Nc2cccc3ccccc23)c1
→ i, 0.24
Cc1ccn2c(=O)nc(SCC(=O)NC3CCCC3)nc2c1
→ i, 0.15
O=C(CNC(=S)NC(=O)c1ccccc1)c1ccccc1
→ i, 1.5
Cc1c(Cl)cn2c(=O)cc(CN3CCN(c4ccc(F)cc4)CC3)nc2c1Cl
→ i, -0.47
COc1ccc(C(=O)Nc2ccc(C(=O)NCCc3ccc(OC)c(OC)c3)cc2)cc1
→ i, 0.52
c1cc(CNC2=NCCCCC2)ccn1
→ i, 1
CN(Cc1cn(C)nc1-c1cccc(Cl)c1)C1CCOCC1
→ i, -1
CC1(C)CC(=O)C2=C(C1)N(Cc1ccccc1)C(=O)C2(O)C(F)(F)F (configuration not stated)
→ i, -0.89
O=C(c1cc(-c2ccccc2)on1)N1CCN(C(=O)c2ccco2)CC1
→ i, 0.03
O=C(Nc1ccccn1)c1ccc(Cl)s1
→ i, 0.99
N#CCSc1nn(-c2ccc(F)cc2)c(=S)s1
→ i, 2.5
CCOC(=O)CSC1=C(C#N)C(c2ccc(C)cc2)C(C(=O)OC)C(=O)N1 (configuration not stated)
→ i, 0.09
O=C(/C=C/c1ccoc1)c1ccccc1O
→ i, 0.68
CCOc1ccc(/C(O)=C2\C(=O)C(=O)N(c3ccc(OC)cc3)C2c2ccccc2[N+](=O)[O-])cc1 (configuration not stated)
→ i, 0.11
COC(=O)c1c(NC(=O)C2CC2)sc(C(=O)Nc2ccccc2)c1C
→ i, 0.2
CC(=O)c1c(N2CCN(C(=O)c3ccco3)CC2)nc(=S)n(-c2ccccc2)c1C
→ i, -0.21
Cc1ccc(C2CC(=O)NC3=C2C(=O)CCC3)cc1Br (configuration not stated)
→ i, -3.1
Cc1ccc(N2CCN(C3=NC(=O)C(Cc4ccccc4)S3)CC2)cc1 (configuration not stated)
→ i, -0.02
COc1ccc(C(=O)O)cc1S(=O)(=O)N(C)CCc1cccnc1
→ i, 1.4
Cc1ccccc1Cn1cc(S(=O)(=O)c2ccc(C(C)C)cc2)c(=O)c2cc3c(cc21)OCO3
→ i, 2
CC(C)N(C)C(=O)c1ccc(OC2CCN(CCc3ccccc3)CC2)cc1
→ i, 0.01
O=C(COc1ccc(Br)cc1)N1CCN(c2ccccc2)CC1
→ i, -0.04
CCn1c(-c2cc3c(C(F)(F)F)nn(C)c3s2)n[nH]c1=S
→ i, -0.23
CCOc1ccc(S(=O)(=O)N2CCN(Cc3ccco3)CC2)cc1
→ i, -0.77
Cc1ccccc1OCC(=O)NCc1ccccc1
→ i, 0.84

Molecules listed so far with a cyano group, in the order listed:
Value order – KCNQ2 inh, KCNQ2 inh baseline
CN1C=CC2=C(C#N)C(N)C(C#N)(C#N)[C@H](c3ccccc3)[C@H]2C1 (some centres not stated)
→ i, 7
CC(C)c1nc(C#N)c(NN)o1
→ i, -0.82
N#CCSc1nn(-c2ccc(F)cc2)c(=S)s1
→ i, 2.5
CCOC(=O)CSC1=C(C#N)C(c2ccc(C)cc2)C(C(=O)OC)C(=O)N1 (configuration not stated)
→ i, 0.09

Back to the main list, repeating the 4 entries before the break.
Value order – KCNQ2 inh, KCNQ2 inh baseline
O=C(COc1ccc(Br)cc1)N1CCN(c2ccccc2)CC1
→ i, -0.04
CCn1c(-c2cc3c(C(F)(F)F)nn(C)c3s2)n[nH]c1=S
→ i, -0.23
CCOc1ccc(S(=O)(=O)N2CCN(Cc3ccco3)CC2)cc1
→ i, -0.77
Cc1ccccc1OCC(=O)NCc1ccccc1
→ i, 0.84
COc1ccc(CNc2nc(-c3ccccc3)nn2C(=O)c2cccs2)cc1
→ i, 2.1
C=CCNC(=O)NC(=O)CSc1nnc(C(F)(F)F)n1C
→ i, 1.7
Cn1c(=O)c(C(=O)NNC(=O)c2ccccc2F)c(O)c2ccccc21
→ i, 1.8
COc1ccccc1N1CCN(C(=O)CN2C(=O)c3ccccc3S2(=O)=O)CC1
→ i, -0.66
CCOC(=O)C(Cc1ccc(Cl)cc1Cl)c1ccno1 (configuration not stated)
→ i, 3.1
Cc1ccc(S(=O)(=O)N(C)CC(=O)Nc2ccc3c(c2)OCO3)cc1
→ i, -2.5
COc1ccc(NC(=O)Nc2nnc(Cc3ccccc3)s2)cc1
→ i, 1.3
O=C(COc1ccccc1)Nc1ccccc1N1CCCCC1
→ i, -0.45
O=C(CSc1nnc(Cn2nnc(-c3ccccc3)n2)n1-c1ccccc1)Nc1ccccc1
→ i, 1.5
Cc1cc(Cl)ccc1C(=O)C1CCCN(C(=O)c2cscn2)C1 (configuration not stated)
→ i, -2.4
CCCCC(=O)Nc1nc(C)c(-c2csc(Nc3ccc(Cl)cc3)n2)s1
→ i, 7.5
C=CCn1c(C)cc(C(=O)Cn2ncc(Cl)c(Cl)c2=O)c1C
→ i, -0.32
CNC(=O)c1ccc(-c2sc3nc(N4CCOCC4)c4c(c3c2N)CCCC4)o1
→ -9.5*, -2.4*
C=CCNC(=O)C(=O)NCC1CCCN1CC (configuration not stated)
→ i, -0.61
COc1ccc2nc(N(CCN(C)C)C(=O)c3ccc4ccccc4c3)sc2c1
→ i, 0.06
Cc1c(-c2ccccc2)nc2ccccc2c1C(=O)OCC(=O)Nc1ncc(C(F)(F)F)cc1Cl
→ i, -1.2
CCOc1ccccc1N(C(=O)Nc1ccc(Cl)cc1)C1=NC(C)CS1 (configuration not stated)
→ i, 0.15
COc1ccc(/C=C2\OC(=S)N(C)C2=O)cc1
→ i, -0.59
CC(=O)c1c(N2CCOCC2)nc2ccc(Br)cc2c1-c1ccccc1
→ i, 1.2
CC(=O)Oc1ccc(/C=C/c2nc3ccccc3c(=O)o2)cc1
→ i, 1.7
COc1ccc(-c2nc(CSCC(=O)NC3CCCC3)c(C)o2)cc1OC
→ i, -0.35
COc1ccc(NC(=O)CSc2nc(C)cc(C)n2)c([N+](=O)[O-])c1
→ i, 1.6
COC(=O)C1=C(C)N(CCc2ccccc2)C(=O)C1(NS(=O)(=O)c1ccc(NC(C)=O)cc1)C(F)(F)F (configuration not stated)
→ i, -0.65
O=C1C2C3C=CC(CC3)C2C(=O)N1/N=C/c1ccccc1O (configuration not stated)
→ i, -0.44
CC(C)CN(C(=O)CN1CCN(c2ccc([N+](=O)[O-])cc2)CC1)c1c(N)n(CC(C)C)c(=O)[nH]c1=O
→ i, -1.1
COc1ccccc1NC(=O)CSc1nc2ccccc2c(=O)n1C
→ i, -1.5
O=C1CCCC2=C1C1(CCCCC1)N=C(Nc1nc3ccccc3o1)N2
→ i, -0.22
O=[N+]([O-])c1cccnc1-n1cnc2ccccc21
→ i, 2.5
O=C(c1cnc2ccc3ccccc3c2c1)c1cc(F)ccc1O
→ i, -0.65
CCOC(=O)c1[nH]c(C)c(C(=O)OCc2c(C)noc2C)c1C
→ i, 1
C/C(=N\O)c1cc(Cl)ccc1O
→ i, 2
